# Screening data from PubChem BioAssay.
# StopGo reporter: High Throughput Screening for Foot and Mouth Disease Virus Antivirals; Potency, µM (highest dose often 57.9 µM), without a hit: at the top dose signal change, negative = less light; AID 1159524, 2015; human cells with a luciferase reporter of 2A StopGo recoding; control for the full effect not named in the record; actives 1.2% (n = 410,000); active = well fitted falling curve with a large enough effect; inconclusive = small, poorly fitted or top-dose-only effect; inactive = no such curve, though single readings can be large or run the other way; tested in HEK293T cells; also: nearly all actives have a fitted effect of over 45% in size; luciferase light after 4 h
# RE007 growth inh: qHTS Assay for Inhibitors of the HIV-1 protein Vpr. S. pombe RE007 Vpr strain, BacTiter-Glo ATP luminescence, 24 h; control for the full effect not named in the record. Potency, µM (top dose mostly 92.2 µM), inactives show at the highest dose activity change, negative = less growth. AID 651644, 2012. actives 0.21% (n = 360,000); active = well fitted falling curve with a large enough effect; inconclusive = small, poorly fitted or top-dose-only effect; inactive = no such curve, though single readings can be large or run the other way;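 also: nearly all actives have a fitted effect of over 50% in size; the assay follows cell death caused by Vpr and the record does not say whether a fall means rescue or toxicity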
#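 Fission yeast strain RE007, carrying one chromosomally integrated HIV-1 vpr copy, was seeded at OD 0.01 in PMG+AL medium with 23 nL pinned compound. After 24 h at 30 °C and 99% humidity, viability was read by BacTiter-Glo luminescence.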
# An asterisk follows results filed as active; ? = inconclusive; [ ] = remark or other dose. % is scaled to controls: 0 for no effect and ±100 for the full control effect; potency is read from the fitted curve at half-maximal effect. A portion of the library; count on the stated rates, not on these rows.
SMILES,StopGo reporter,RE007 growth inh
COc1ccc(CN2C(=O)C(C)Nc3ncnc(N4CCc5ccccc5C4)c32)cc1 (stereo not drawn),-24%,-7%
CC1ON=C(c2ccccn2)N(Cc2ccc3c(c2)OCO3)C1=O (stereo not drawn),-12%,2%[18.4 µM]
C[C@@H]1CN([C@@H](C)CO)C(=O)c2cc(Br)cnc2O[C@H]1CN(C)C(=O)CN1CCOCC1,-23%,0%
Cn1c(=O)c2cc(NC(=S)NCc3ccccc3F)ccc2n1C,54%[activator],3%
CC(=NNC1=NCCN1)c1cnn(C2=NCCN2)c1C,-4%,-15%
O=C(NN=Cc1ccc2c(c1)CCN2)c1cccs1,4%,7%
CCOC(=O)C1CCCN(C(=O)CSc2nnc3nc(C)cc(C)n23)C1 (stereo not drawn),-16%,-3%
O=C1NC[C@H](Cc2ccccc2)N(CC2CCN(CCCC3CCCC3)CC2)C1=O,-8%,-6%
Cc1ccc(S(=O)(=O)N2C[C@H]3[C@H]4C(=O)N(C5CCCCC5)C(=O)[C@H]4CC(=O)[C@H]3[C@@H]2c2ccccc2F)cc1,-2%,-4%
C[C@H](CO)N1C[C@H](C)[C@H](CN(C)Cc2cncnc2)Oc2cc(Br)ccc2S1(=O)=O,-13%,19%
Cc1cc(=O)c2ccc(NC(=O)c3ccccc3)cc2[nH]1,-18%,1%
Cc1ccc(CNC(=O)CSc2nc(=O)n3ccc(C)cc3n2)cc1,-6%,-8%

# Overlap with the part before: 2 compounds, then new ones.
SMILES,StopGo reporter,RE007 growth inh
Cc1cc(=O)c2ccc(NC(=O)c3ccccc3)cc2[nH]1,-18%,1%
Cc1ccc(CNC(=O)CSc2nc(=O)n3ccc(C)cc3n2)cc1,-6%,-8%
CCc1nc2c(OCc3ccc(Cl)cc3)cccn2c1N(C=O)Cc1ccccc1,-15%,?
COc1ccc(C(=O)CC(=O)c2ccc(F)cc2)cc1,52%[activator],-9%
CCOC(=O)[C@]12CCCC=C1N(Cc1ccccc1)C(=O)[C@H](CC(=O)NCCCN1CCCC1=O)C2,-13%,6%
COc1ccc(NC(=O)COC(=O)c2c(NC(C)=O)sc(C)c2C)cc1,-4%,-1%
CC1(C(=O)NS(=O)(=O)c2ccccc2)CCN1C(=O)C1CCCCC1 (stereo not drawn),0%,2%
OCCCn1c(C2CCCN2c2nc(-c3ccc(Cl)cc3)cs2)nc2cc(Cl)c(Cl)cc21 (stereo not drawn),-19%,2%
COc1ccc(NC(=O)C2Cc3c(-c4cccc(F)c4)ccnc3O2)cc1OC (stereo not drawn),16µM*,-6%[18.4 µM]
CCCCC[C@H](C)N1C[C@H](COCc2ccccc2)Oc2cc(N3CCC[C@H]3COC)ccc2S1(=O)=O,21%,-2%
CCOC(=O)N(C)C[C@@H]1OCc2cnnn2CCCC(=O)N([C@@H](C)CO)C[C@@H]1C,?,15%
CCCN1C(=O)CC(c2ccc(OC)c(OC)c2)C1=O (stereo not drawn),-5%,6%
COc1ccc(S(=O)(=O)N(C)C)cc1NC(=O)COc1ccc2c(c1)CCC2,?,12%
CN(CC(=O)Nc1ccc(Cl)c(Cl)c1)C(=O)c1ccccc1SCC(=O)N1CCCC1,?,2%
CCOc1ccc(CCN2C(=S)N([C@@H](Cc3ccc(O)cc3)CN3CCC[C@@H]3CN3C(=S)NC[C@@H]3Cc3ccccc3)C[C@@H]2Cc2ccc(O)cc2)cc1,0%,-11%
Cc1cc(C)c2c(=O)n(CC(=O)N3CCN(c4ccccc4)CC3)ccc2n1,0%,-1%
CSCCC(C(=O)NCc1ccccc1)n1c(-c2ccc3c(c2)CCO3)nc2ccccc21 (stereo not drawn),-13%,-3%
Cn1ncc([N+](=O)[O-])c1C(=O)Nc1cc(Cl)ccc1Cl,-4%,7%
COc1ccc(Cc2c(-c3ccc(C#N)cc3)nc3c(Cl)cc(C(F)(F)F)cn23)c(C)c1,-19%,-25%
O=C(NCCNC(=O)c1ccc(-c2cc(Cl)ccc2Cl)o1)c1cnccn1,?,-17%
Cc1ccc(S(=O)(=O)N(C)C[C@H]2Oc3ncc(Br)cc3C(=O)N([C@H](C)CO)C[C@@H]2C)cc1,40%[activator],2%
Cc1ccc(C=Cc2ccccn2)cc1,21%,-17%
O=C(Nc1ccccc1)c1cc(C2CCCN(C(=O)c3ccccc3)C2)on1 (stereo not drawn),39%[activator],-5%
C[C@@H]1CN([C@H](C)CO)S(=O)(=O)c2ccc(Br)cc2O[C@H]1CN(C)C(=O)Cc1ccccn1,24%,39%
CC(=O)C[C@H]1c2cc(C(F)(F)F)ccc2S(=O)(=O)N1C1CCCC1,12%,2%
CN=C1S/C(=C\c2cccc(Cl)c2Cl)C(=O)N1C,26%,-21%
COc1cc(NC(=O)[C@@H]2O[C@H](CO)[C@@H](O)[C@H]2O)cc(OC)c1OC,-6%,5%[18.4 µM]
COc1ccc(Nc2nc(C)c(C(C)=O)s2)cc1,41%[activator],-16%
CC(C)(C)OC(=O)N1CCC(C(=O)Nc2ccc(C(=O)NCc3ccccc3)cc2)CC1,-18%,-12%
Cc1ccc(S(=O)(=O)N2CCC(=O)N([C@H](COC(=O)Nc3ccccc3)Cc3ccccc3)CC2)cc1,-22%,0%
CCCNC(=O)N(C)C[C@H]1Oc2ncc(C#CCc3ccccc3)cc2C(=O)N([C@H](C)CO)C[C@H]1C,?,-5%
C[C@H](CO)NC(=O)c1nc[nH]c1C(=O)N[C@H](C)c1ccccc1,-26%,-16%
O=C(C[C@@H]1C[C@@H]2c3cc(NS(=O)(=O)c4ccc(F)cc4)ccc3O[C@@H]2[C@H](CO)O1)N1CCc2ccccc2C1,?,4%
Cc1cccc(OC(=O)c2ccc3c(=O)n4c(nc3c2)CCC4)c1,12%,-15%
CCn1nccc1NC(=O)c1ccc2sc([C@@H]3O[C@H](CO)[C@H](O)[C@H](O)[C@H]3O)nc2c1,-15%,2%
CC(=O)c1ccc(OC2(C)CCN(Cc3cc4ccccc4[nH]3)C2)cc1 (stereo not drawn),-20%,-17%
O=C(c1ccccc1)c1ccc(N2CCN(C(=O)c3ccc(F)cc3F)CC2)c(F)c1,?,6%
O=C(Nc1ccc2c(c1)OCO2)c1cc(C2CCCCN2S(=O)(=O)c2cccs2)on1 (stereo not drawn),-3%,3%
COc1ccc(C(C)(O)c2nc(-c3ccc(F)cc3OC)cs2)cc1 (stereo not drawn),0%,6%
CCCCNC(=O)C1(C)CCC(=O)N1CC(F)(F)F (stereo not drawn),-7%,1%
C[C@H](CO)N1C[C@H](C)[C@@H](CN(C)C(=O)Nc2ccccc2F)OCc2cnnn2CCCC1=O,-9%,-5%
Cc1cccnc1C1=NOC(Cc2ccccc2)C(=O)N1C (stereo not drawn),-15%,5%[18.4 µM]
COc1ccc(CCN2CC(C(=O)OCC(=O)N(C)CC(=O)Nc3ccccc3Cl)CC2=O)cc1OC (stereo not drawn),-18%,0%
CN(c1ccccc1)S(=O)(=O)c1ccc(C(=O)NCc2cccnc2)cc1,0%,-1%
CCN(CC)S(=O)(=O)c1ccc(C(=O)Nc2cc(S(=O)(=O)N3CCOCC3)ccc2N2CCN(C)CC2)cc1,-3%,-3%
CC(C)CCN1CCC(CN2C(=O)C(=O)NC[C@@H]2CC(C)C)CC1,-8%,-8%
CN1CCn2cnc(C(=O)N[C@@H](Cc3ccccc3)C(=O)OC(C)(C)C)c2C1=O,-7%,?
CCOC(=O)[C@]12Cc3c(cc(OC)c(OC)c3OC)[C@H]1N(C1CCCCC1)C(=O)c1ccccc12,8.9µM*,?
COc1ccc(CN2CCNC(=O)C2CC(=O)N(C)C2CCCCC2)cc1OC (stereo not drawn),1%,7%
COc1cc2c(cc1[N+](=O)[O-])-c1ccc([N+](=O)[O-])cc1C2=NNC(N)=S,0%,?
C=CCCC(=O)N1C[C@H]2CON(C)[C@H]2C[C@H]1c1ccc(N2CCCCC2)cc1,-11%,-4%
CC1(C(=O)NCc2cccc3ccccc23)CCN1Cc1cc2ccccc2o1 (stereo not drawn),-14%,2%[18.4 µM]
CC(C)C[C@H]1CNC(=O)C(=O)N1C[C@H]1CCCN1C[C@H](CC(C)C)N1C[C@H](Cc2ccccc2)N(CC2CCCCC2)C(=O)C1=O,25%,6%
CCOc1ccc(C(=O)N[C@H](C(=O)NC2CCCCC2)C(C)C)cc1,30%,-5%
COc1cccc(Cn2c3ccc(NC(=O)Cc4ccccc4C)cc3c(=O)n2C)c1,13%,-14%
O[C@@H]1CN(CC2CCCCC2)[C@@H](c2ccccc2)C[C@H]1n1cc(C2CC2)nn1,-19%,-16%
C[C@H](CO)N1C[C@H](C)[C@@H](CN(C)C(=O)Nc2ccc(F)cc2)Oc2cc(Br)ccc2S1(=O)=O,14%,-7%
COc1cc(C(=O)N2CCC2(C)C(=O)NC(C)C)cc(OC)c1OC (stereo not drawn),-4%,7%[18.4 µM]
Cc1cc2ncn(S(=O)(=O)c3ccc(S(N)(=O)=O)cc3)c2cc1C,-17%,3%
CCOc1ccccc1CNC(=O)C1CCN(S(=O)(=O)N2CCC(C)CC2)CC1,-22%,2%
COc1ccc(S(=O)(=O)N(C)[C@H]2C[C@H]3c4cc(Oc5ccccc5C)ccc4CCN3C(=O)[C@H]2[C@H](C)O)cc1,?,0%
CC(C)(C)N1[C@@H](CC(=O)O)c2cc(C(F)(F)F)ccc2S1(=O)=O,-22%,-16%

# A section from further up, as a working copy:
SMILES,StopGo reporter,RE007 growth inh
COc1ccc(CN2CCNC(=O)C2CC(=O)N(C)C2CCCCC2)cc1OC (stereo not drawn),1%,7%
COc1cc2c(cc1[N+](=O)[O-])-c1ccc([N+](=O)[O-])cc1C2=NNC(N)=S,0%,?
C=CCCC(=O)N1C[C@H]2CON(C)[C@H]2C[C@H]1c1ccc(N2CCCCC2)cc1,-11%,-4%
CC1(C(=O)NCc2cccc3ccccc23)CCN1Cc1cc2ccccc2o1 (stereo not drawn),-14%,2%[18.4 µM]
CC(C)C[C@H]1CNC(=O)C(=O)N1C[C@H]1CCCN1C[C@H](CC(C)C)N1C[C@H](Cc2ccccc2)N(CC2CCCCC2)C(=O)C1=O,25%,6%
CCOc1ccc(C(=O)N[C@H](C(=O)NC2CCCCC2)C(C)C)cc1,30%,-5%
COc1cccc(Cn2c3ccc(NC(=O)Cc4ccccc4C)cc3c(=O)n2C)c1,13%,-14%
O[C@@H]1CN(CC2CCCCC2)[C@@H](c2ccccc2)C[C@H]1n1cc(C2CC2)nn1,-19%,-16%
C[C@H](CO)N1C[C@H](C)[C@@H](CN(C)C(=O)Nc2ccc(F)cc2)Oc2cc(Br)ccc2S1(=O)=O,14%,-7%
COc1cc(C(=O)N2CCC2(C)C(=O)NC(C)C)cc(OC)c1OC (stereo not drawn),-4%,7%[18.4 µM]
Cc1cc2ncn(S(=O)(=O)c3ccc(S(N)(=O)=O)cc3)c2cc1C,-17%,3%
CCOc1ccccc1CNC(=O)C1CCN(S(=O)(=O)N2CCC(C)CC2)CC1,-22%,2%
COc1ccc(S(=O)(=O)N(C)[C@H]2C[C@H]3c4cc(Oc5ccccc5C)ccc4CCN3C(=O)[C@H]2[C@H](C)O)cc1,?,0%
CC(C)(C)N1[C@@H](CC(=O)O)c2cc(C(F)(F)F)ccc2S1(=O)=O,-22%,-16%

# The listing continues:
SMILES,StopGo reporter,RE007 growth inh
CCCCCCCCN1C(=O)[C@H](CC(=O)N2CCOCC2)C[C@@]2(C(=O)OCC)CCCC=C12,-12%,13%
COC(=O)C[C@H]1C[C@H]2c3cc(NC(=O)C4CCOCC4)ccc3O[C@H]2[C@H](CO)O1,-11%,1%
COC(=O)[C@H](Cc1ccccc1)NC(=O)/C=C/[C@H]1O[C@@H](n2ccc(=O)[nH]c2=O)[C@H](O)[C@@H]1O,-20%,1%
Cc1cccc(C)c1-n1nnnc1C(c1ccnc2ccccc12)N1CCOCC1 (stereo not drawn),-22%,-13%
CC(=NNS(=O)(=O)c1ccc(C)cc1)c1ccncc1,0%,4%
Cc1ccc(C(=O)N[C@H](C(=O)Nc2cccc(S(=O)(=O)N3CCOCC3)c2)C(C)C)cc1,3%,13%
CC(C)N1CC2(CC(c3ccccc3C(F)(F)F)=NO2)CN1C(=O)c1ccc(C(C)(C)C)cc1 (stereo not drawn),-7%,1%
COc1ccc2nc(-c3ccccc3)nc(SC)c2c1,26%,6%
Cc1cccc(C)c1NC(=O)c1cc(S(=O)(=O)N2CCC3(CC2)OCCO3)ccc1F,-13%,-1%
COC(=O)C[C@H]1c2cc(F)ccc2S(=O)(=O)N1Cc1ccccc1OC,3%,8%
C=CCN1CCC(=O)C(C(=O)OCC)=C1C(=O)OCC,-12%,-8%
O=C(Nc1ccn(CCCNCCN2CCOCC2)c(=O)n1)OCc1ccccc1,-6%,-11%
Cc1ccccc1Nc1nc(N)[nH]c(=O)c1N=O,4%,5%
CSc1ccc(CN2C(=O)C(F)(F)Oc3c(C(C)=O)cccc32)cc1,?,14%
Cc1cc(OCC(=O)Nc2c(C(C)C)cccc2C(C)C)no1,0%,-13%
CCN1C[C@@H]2[C@@H]3C(=O)N(C)C(=O)[C@@H]3[C@](Cc3ccccc3)(C1=O)N2C(=O)c1ccccc1,-18%,-10%
COC(=O)C1=C(c2ccc(OCc3ccccc3)cc2)C[C@@H]2CC[C@H]1N2C(=O)NCc1ccc2[nH]ccc2c1,-5%,-3%
CCNC(=O)C1(C)CCCN(C(=O)c2cc(C)nn2C(C)(C)C)C1 (stereo not drawn),-10%,0%[18.4 µM]
CCCC[C@@H]1CC2=C(C(=O)OC(C)(C)O2)[C@H](c2ccc(C(C)C)cc2)O1,-16%,2%
Cc1ccccc1NC(=O)Cc1nc(COC(=O)/C=C/c2ccc(F)cc2)cs1,?,-2%
